CSC inhib: blocks cancer stem cells. cancer stem cell-like cells viability, luminescence. inhibition, % at 7.5 µM. 300,000 compounds, 1.1% hits. AID 2717;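 active = mean at 75% or more and at least half the replicates too; inconclusive = mean and replicates disagree; tested in HMLE shEcad cells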;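 note: 0% = median of negative and 100% = median of positive control wells; the first replicate is given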
Env fusion inh: HIV envelope-mediated fusion inhibition. HeLa-JRFL Env/CEM21 cell fusion, luciferase. inhibition, % at 12.3 µM. 360,000 compounds, 1.1% hits;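 active = mean replicate inhibition score of at least 50 and every replicate individually at or above 50; inconclusive = only one of the two criteria met; inactive = mean below 50 and not all replicates reaching 50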;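 note: 0% = plate neutral controls and 100% = maraviroc near 300 nM; one replicate is shown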
Yeast UUG start: alters start codon recognition fidelity in yeast; AID 602363; activity score, % at 18.7 µM; S. cerevisiae UUG-firefly luciferase reporter, luminescence/redox ratio; 350,000 compounds, 0.13% hits;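 active = replicate mean at a twofold rise or more, about +100% in these data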;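 note: firefly luciferase made from a UUG start codon reports start codon fidelity; reporter light over untreated wells divided by growth signal over untreated wells; some hits fall short of that in this replicate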
Rce1 inh: yeast Ras-converting enzyme inhibition. calls only. yeast membranes, quenched prenylated peptide cleavage fluorescence. 290,000 compounds, 0.27% hits. Q03530;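 active = fall in fluorescence gain of 50% or more versus controls, with final raw signal at or below 3038400; inconclusive = same 50% fall but final raw signal above 3038400; inactive = fall in fluorescence gain under 50%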;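 note: plate controls were neutral control wells for no effect and wells lacking membranes for full effect; tested at 10 µM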
Target sequence (Q03530 whole entry, looked up): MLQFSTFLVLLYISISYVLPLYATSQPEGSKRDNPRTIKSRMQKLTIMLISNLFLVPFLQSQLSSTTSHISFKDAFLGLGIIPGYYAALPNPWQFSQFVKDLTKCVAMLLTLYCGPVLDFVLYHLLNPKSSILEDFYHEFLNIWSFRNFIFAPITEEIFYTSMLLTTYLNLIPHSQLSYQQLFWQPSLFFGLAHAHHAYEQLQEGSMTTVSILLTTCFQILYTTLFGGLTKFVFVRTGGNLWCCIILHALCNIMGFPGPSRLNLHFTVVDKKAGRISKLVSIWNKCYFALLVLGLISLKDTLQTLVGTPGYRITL
eIF4H FP inh: inhibitors of RNA binding by human eIF4H. inhibition, % at 35 µM. eIF4H fluorescence polarization binding assay. 290,000 compounds, 0.94% hits;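 active = 50% or more with normal probe brightness, or confirmed in later tests; inconclusive = above 50% with abnormal brightness, or retests that disagree; inactive = below 50% or failed in later tests; about a fifth of its hits are not listed in these tables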;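 note: calls also rest on retests at 20 µM and on dose response follow-up; 0% = protein and probe with vehicle and 100% = probe without protein; strong numbers were not always called active; many hits fall short of the cut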
PABP FP inh: PABP-poly(A) binding inhibition; P11940; PABP-poly(A) RNA binding, fluorescence polarization; inhibition, % at 35 µM; 290,000 compounds, 1% hits;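 active = 50% or more with normal probe brightness, or confirmed in later tests; inconclusive = above 50% with abnormal brightness, or retests that disagree; inactive = below 50% or failed in later tests; about a fifth of its hits are not listed in these tables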;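 note: calls also rest on retests at 20 µM and on dose response follow-up; controls were probe without protein and protein plus probe with vehicle; some compounds called inactive have numbers as strong as hits; many hits fall short of the cut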
MT1-MMP act inh: MT1-MMP (human) activation inhibition; P50281; HT1080 RFP-PRO-GFP cells, GFP/RFP ratio fluorescence, overnight; percent of plate control window, DMSO zero; GFP/RFP ratio change, % at 20 µM; 360,000 compounds, 0.061% hits;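 active = GFP/RFP ratio change of at least 30% with cell ATP level not reduced by more than half and red fluorescence within 50% of control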; note: strong numbers were not always called active
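Test system: HT1080 cells expressing an RFP-PRO-GFP fluorescent reporter construct / Compound dosing: single-point 20 µM compound, 1% DMSO / Schedule: cells overnight before dosing, compound overnight, 37 °C, 5% CO2 / Evaluation: GFP/RFP fluorescence ratio / Control set: DMSO and RFP-L50D-GFP cell wells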
eIF4H FP inh retest: also measured in eIF4H FP inh; calls as there; inhibition, %; compound at 20 µM; confirmation average;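 mean of two retest wells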
PABP FP inh retest: recorded beside PABP FP inh, whose call it bears; inhibition, %; compound at 20 µM; confirmation repeats;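 mean of two retest wells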
MT1-MMP act inh RFP: also measured in MT1-MMP act inh; calls as there; RFP signal change, %; measured here: RFP expression control read;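 0 = vehicle wells; hits needed this value within 50% of zero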
Active calls of the source: *; i = inactive; ? = inconclusive; nt = not tested or not shown; & = joins results of further samples; [ ] = remark or other dose. An excerpt. The share of hits here may be higher or lower than overall.

Start of the listing, in advance:
SMILES	CSC inhib	Env fusion inh	Yeast UUG start	Rce1 inh	eIF4H FP inh	PABP FP inh	MT1-MMP act inh	MT1-MMP act inh RFP	others
Cc1ccc2c(c1)=C/C(=C\c1c(O)[nH]c(=S)[nH]c1=O)C(=O)N=2	-3.8	nt	nt	i	-5.6	-5.9	nt	nt
Cn1nc(N)c2c1N=P(N1CCOCC1)(N1CCOCC1)N=C2c1ccccc1	-10.0	nt	-9.0	i	3.3	-6.5	5.2	1.2
O=C(Nc1cccc(OC(=O)N2CCOCC2)c1)N1CCOCC1	-11.7	72.4*	-18.3	nt	7.5	-4.2	10.8	8.8
CCCN1C2CCCC1CC(NC(C)=O)C2 (configuration not stated)	-6.5	10.8	-12.3	i	1.3	-0.9	1.0	2.5

The whole of this part, previewed entries included:
SMILES	CSC inhib	Env fusion inh	Yeast UUG start	Rce1 inh	eIF4H FP inh	PABP FP inh	MT1-MMP act inh	MT1-MMP act inh RFP	others
Cc1ccc2c(c1)=C/C(=C\c1c(O)[nH]c(=S)[nH]c1=O)C(=O)N=2	-3.8	nt	nt	i	-5.6	-5.9	nt	nt
Cn1nc(N)c2c1N=P(N1CCOCC1)(N1CCOCC1)N=C2c1ccccc1	-10.0	nt	-9.0	i	3.3	-6.5	5.2	1.2
O=C(Nc1cccc(OC(=O)N2CCOCC2)c1)N1CCOCC1	-11.7	72.4*	-18.3	nt	7.5	-4.2	10.8	8.8
CCCN1C2CCCC1CC(NC(C)=O)C2 (configuration not stated)	-6.5	10.8	-12.3	i	1.3	-0.9	1.0	2.5
O=C(COc1ccc(Cl)cc1)N1CCN(Cc2ccc([N+](=O)[O-])cc2)CC1	30.9	27.9	-0.6	nt	-41.3	10.0	-5.0	-21.5
O=[N+]([O-])c1cc([As](=O)(O)O)ccc1O	-1.2	12.1	-7.2	nt	nt	nt	1.1	-0.1
O=C(O)c1ccc2c(c1)C1C(Cl)C(Sc3ccccc3[N+](=O)[O-])CC1C(c1cccc([N+](=O)[O-])c1)N2 (configuration not stated)	nt	nt	-3.1	nt	99.2	-5.6	5.7	1.2	eIF4H FP inh retest=-4.5;PABP FP inh retest=5.3
CCCCn1c(O)c(C=NCCCn2ccnc2)c(=O)[nH]c1=O	nt	nt	nt	i	9.0	-8.2	-4.0	-2.6
CCCCn1c(O)c(C(CC)=NCc2cccnc2)c(=O)[nH]c1=O	-1.7	19.5	-13.6	i	4.9	-1.8	-1.0	0.2
C[C@H](CO)N1C[C@H](C)[C@@H](CN(C)C(=O)Oc2cccc3ccccc23)OCc2cn(nn2)CCCC1=O	nt	0.2[16.7 µM]	-2.1&10.1&-2.8	nt	nt	nt	-6.3	-3.9
C[n+]1c(-c2ccccc2)c2cc(N)ccc2c2ccc(N)cc21	43.8	31.0	-35.8	i	?	?	58.7	59.5
CC(=O)O[C@]1(C)C(=O)OC/C2=C/CN(C)CCC(OC(=O)[C@@](O)(C(C)O)C[C@H]1C)C2=O (some centres not stated)	9.2	3.8	-1.0	i	26.3	24.7	1.2	1.6

Random excerpt: three records from the list
SMILES	CSC inhib	Env fusion inh	Yeast UUG start	Rce1 inh	eIF4H FP inh	PABP FP inh	MT1-MMP act inh	MT1-MMP act inh RFP	others
O=C(Nc1cccc(OC(=O)N2CCOCC2)c1)N1CCOCC1	-11.7	72.4*	-18.3	nt	7.5	-4.2	10.8	8.8
O=C(COc1ccc(Cl)cc1)N1CCN(Cc2ccc([N+](=O)[O-])cc2)CC1	30.9	27.9	-0.6	nt	-41.3	10.0	-5.0	-21.5
CCCN1C2CCCC1CC(NC(C)=O)C2 (configuration not stated)	-6.5	10.8	-12.3	i	1.3	-0.9	1.0	2.5

New compounds follow.
SMILES	CSC inhib	Env fusion inh	Yeast UUG start	Rce1 inh	eIF4H FP inh	PABP FP inh	MT1-MMP act inh	MT1-MMP act inh RFP	others
COC(=O)C1C2c3ccccc3OC1(C)N=c1s/c(=C/c3cnn(C)c3C)c(=O)n12 (configuration not stated)	-0.4	nt	-2.2	i	-8.5	8.4	0.9	4.8
CC(C)(CN)CC(=O)O	-14.6	6.3	nt	i	-0.9	17.1	2.8	4.0
CCCCC/C=C\C/C=C\C/C=C\C/C=C\CCCC(=O)Nc1ccc(O)cc1	85.0*	nt	nt	i	0.7	6.3	nt	nt
COc1cc(CN2CCNCC2)cc(OC)c1OC	-7.1	-2.5	-8.7	i	-4.8	-1.3	2.3	9.1
CC(C)(C)[C@]1(O)C[C@@H]2OC(=O)C[C@@]23C(=O)O[C@@H]2OC(=O)[C@@H](O)C213 (some centres not stated)	-16.3	22.8	-10.4	nt	nt	nt	-0.9	5.1
CC(C(=O)c1c[nH]c2ccccc12)N1CCOCC1 (configuration not stated)	-18.5	9.8	nt	i	-8.4	-7.6	-0.9	2.4
CCCCn1c(O)c(C(CC)=NCCCN(C)C)c(=O)[nH]c1=O	-9.1	-29.0	-13.3	nt	-2.2	-4.6	-2.3	2.5
Cc1occc1C(=O)N1CCC2(CC1)OCCO2	nt	-41.3	-2.6	i	1.9	23.1	3.4	7.0
COC(=O)C1=C(c2cccc(C#N)c2)C[C@@H]2CC[C@H]1N2C(=O)N1CCc2cc(OC)c(OC)cc2C1	-9.1	-1.9	2.6	nt	nt	nt	-2.2	-0.3
FC(F)(F)c1ccc2c(c1)nnn2C1CCN(Cc2nnnn2Cc2ccccc2)CC1	0.9	36.7	-8.8	i	-4.2	2.3	5.9	-16.2
CCOC(=O)c1c(C)[nH]c(C)c1C(=O)C(Cc1ccccc1)N(C)C (configuration not stated)	-3.2	-3.0	6.9	i	11.2	4.6	-1.7	1.4
COc1c(C)cc(C(=O)C2CCCN(Cc3ccccn3)C2)cc1C (configuration not stated)	55.3	7.1	-14.2	i	-9.3	-7.9	-0.7	2.6
COP(=O)(OC)Oc1ccc(C(O)C(Cl)(Cl)Cl)cc1 (configuration not stated)	-14.3	2.4	-18.5	i	-7.4	0.5	0.5	1.2
Cc1cc(OC(=O)N(C)C)nc2c1c(C)nn2C	-5.2	0.1	-11.8	i	-3.1	-4.6	2.7	0.6
COC(=O)C1=C(c2ccc(OC(F)(F)F)cc2)C[C@@H]2CC[C@H]1N2C(=O)NCC1CC1	14.2	1.4	-16.0	nt	nt	nt	-2.1	-23.6
Cc1cc(N2C(=O)C3CCCN3C2c2ccccc2)no1 (configuration not stated)	nt	-55.7	-3.7	i	5.8	6.1	-0.1	2.1
O=P(N1CCCCC1)(N1CCCCC1)C(Cl)(Cl)Cl	-8.2	4.9	-18.2	i	-8.4	-6.7	-1.7	8.5
CN(Cc1ccccc1)C(=C(Cl)Cl)/C(=C1/NCCN1Cc1ccc(Cl)nc1)[N+](=O)[O-]	-8.7	nt	3.3	i	6.5	-1.7	3.2	0.9
COC(=O)C1=C(c2ccccc2OCc2ccccc2)C[C@@H]2CC[C@H]1N2C(=O)NCc1ccc(OC)c(OC)c1	-1.4	-75.3	-14.3	nt	nt	nt	-0.4	-6.3
CN(C)C(=O)Oc1ccc(OCc2cccc[n+]2C)cc1	35.1	-15.4	nt	i	-3.5	-2.0	5.2	2.0
CCOc1ccc(N2C(=O)/C(=C/c3ccc(C)o3)C(=O)NC2=S)cc1	36.0	-16.2	-11.2	i	27.9	22.2	-15.3	10.6
CCNCCNc1ccc([N+](=O)[O-])c2cccnc12	1.3	-17.3	-14.1	i	-0.7	3.2	1.7	0.1
CC(=O)N1CN2CN(C1)CN(C(C)=O)C2	-6.7	nt	nt	i	4.3	-11.8	1.5	4.0
Cc1ccc(S(=O)(=O)N(C)C)cc1NC(=O)C(C)[N+]12CCN(CC1)CC2 (configuration not stated)	-5.7	-8.4	nt	i	-5.3	-4.0	-0.6	-1.1
COc1ccc(N2C(=O)/C(=C/c3ccc(C)o3)C(=O)NC2=S)cc1	nt	-10.5	-0.8	i	11.5	8.2	-13.1	4.2
C#C[C@]1(O)CC[C@H]2[C@@H]3CCC4=Cc5nc6nc7ccccc7n6cc5C[C@]4(C)[C@H]3CC[C@@]21C	38.6	39.8	-8.7	nt	nt	nt	-48.0	-15.0
Cc1ccc2c(c1)[C@@H]1CN(C)CC[C@@H]1N2C(=O)Nc1cccc(C(F)(F)F)c1	nt	39.3	-13.2	i	-5.2	-0.5	5.5	-1.0
CC(=O)c1ccc2c(c1)C1C(Cl)C(Sc3ccccc3[N+](=O)[O-])CC1C(C(=O)O)N2 (configuration not stated)	8.8	nt	nt	nt	97.3	-0.8	45.2*	13.7*	eIF4H FP inh retest=-9.5;PABP FP inh retest=9.7
COc1cccc(CNCCc2ccccc2)c1OC	-5.7	6.4	nt	i	7.2	-6.8	-3.1	-1.4
COC(=O)C12CCc3c(ccc4cc(OC)ccc34)C1=CC(=O)C2 (configuration not stated)	nt	3.9	0.0	nt	nt	nt	6.7	-5.5
O=C(Cc1ccc(Cl)c(Cl)c1)NCC1(N2CCOCC2)CCCCC1	9.2	11.4	nt	i	-13.1	-7.7	2.9	3.7
O=C(c1cc(S(=O)(=O)N2CCCCC2)ccc1F)N1CCC2(CC1)OCCO2	-17.6	nt	-11.5	i	2.8	1.0	0.4	-0.4
CNC(C(=O)c1ccccc1)C(OC)c1ccccc1 (configuration not stated)	0.2	nt	-7.1	i	11.2	7.6	-0.6	2.5
CCCCC(=O)N/N=C/c1c(O)n(CC)c(=S)[nH]c1=O	-4.5	-3.4	nt	nt	55.5*	1.9	4.1	10.1	eIF4H FP inh retest=78.6*;PABP FP inh retest=46.0
CN1C(=O)C(=Cc2ccc(N3CCCCCC3)o2)C(=O)N(C)C1=S	0.2	nt	-13.3	nt	?	?	-71.4	51.7
CCOC(=O)c1c(/N=C/c2c(O)n(-c3ccccc3F)c(=S)[nH]c2=O)sc2c1CCCC2	-6.9	nt	-12.8	i	-6.8	48.5	-19.8	15.7
CSc1ccc(C(=O)C2CCCN(CCCn3cccn3)C2)cc1 (configuration not stated)	9.8	-18.7	nt	i	-3.8	-3.9	2.1	5.7

High-throughput results (PubChem BioAssay)
